CSC inhib: cancer stem cell inhibition; cancer stem cell-like cells viability, luminescence; 300,000 tested, 1.1% active; inhibition, % at 7.5 µM;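 active = mean at 75% or more and at least half the replicates too; inconclusive = mean and replicates disagree; tested in HMLE shEcad cells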;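 also: 0% = median of negative and 100% = median of positive control wells; the first replicate is given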
Rce1 inh: inhibitors of yeast Ras-converting enzyme; Q03530; yeast membranes, quenched prenylated peptide cleavage fluorescence; calls only; 290,000 tested, 0.27% active; AID 2563;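 active = fall in fluorescence gain of 50% or more versus controls, with final raw signal at or below 3038400; inconclusive = same 50% fall but final raw signal above 3038400; inactive = fall in fluorescence gain under 50%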;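 also: plate controls were neutral control wells for no effect and wells lacking membranes for full effect; tested at 10 µM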
Target sequence (Q03530 whole entry, looked up): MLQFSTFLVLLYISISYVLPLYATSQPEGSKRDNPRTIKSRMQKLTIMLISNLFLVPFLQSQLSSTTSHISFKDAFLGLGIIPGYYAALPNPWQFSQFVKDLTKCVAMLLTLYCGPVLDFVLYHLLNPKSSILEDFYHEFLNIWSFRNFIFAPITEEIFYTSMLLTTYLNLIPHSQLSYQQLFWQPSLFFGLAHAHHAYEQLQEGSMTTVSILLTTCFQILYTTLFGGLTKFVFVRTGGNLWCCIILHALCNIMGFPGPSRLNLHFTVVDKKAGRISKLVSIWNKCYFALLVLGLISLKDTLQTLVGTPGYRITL
eIF4H FP inh: inhibitors of RNA binding by human eIF4H. Q15056. eIF4H fluorescence polarization binding assay. inhibition, % at 35 µM. 290,000 tested, 0.94% active;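 active = 50% or more with normal probe brightness, or confirmed in later tests; inconclusive = above 50% with abnormal brightness, or retests that disagree; inactive = below 50% or failed in later tests; about a fifth of its hits are not listed in these tables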;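 also: calls also rest on retests at 20 µM and on dose response follow-up; 0% = protein and probe with vehicle and 100% = probe without protein; strong numbers were not always called active; many hits fall short of the cut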
Env fusion inh: blocks HIV Env-driven cell-cell fusion | inhibition, % at 12.3 µM | HeLa-JRFL Env/CEM21 cell fusion, luciferase | 360,000 tested, 1.1% active;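 active = mean replicate inhibition score of at least 50 and every replicate individually at or above 50; inconclusive = only one of the two criteria met; inactive = mean below 50 and not all replicates reaching 50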;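 also: 0% = plate neutral controls and 100% = maraviroc near 300 nM; one replicate is shown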
MT1-MMP act inh: MT1-MMP (human) activation inhibition; P50281; GFP/RFP ratio change, % at 20 µM; HT1080 RFP-PRO-GFP cells, GFP/RFP ratio fluorescence, overnight; percent of plate control window, DMSO zero; AID 651647; 360,000 tested, 0.061% active;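 active = GFP/RFP ratio change of at least 30% with cell ATP level not reduced by more than half and red fluorescence within 50% of control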; also: strong numbers were not always called active
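Assay system: HT1080 RFP-PRO-GFP cells | Dosing: 20 µM single dose, 1% DMSO | Incubation: Cells overnight before dosing, compound overnight, 37 °C, 5% CO2 | Evaluation: GFP/RFP fluorescence ratio | Control set: DMSO-only wells and HT1080 RFP-L50D-GFP cell wells as references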
UUG fidelity: modulators of start codon recognition fidelity in yeast | S. cerevisiae UUG-firefly luciferase reporter, luminescence/redox ratio | 350,000 tested, 0.13% active | activity score, % at 18.7 µM;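 active = replicate mean at a twofold rise or more, about +100% in these data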;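 also: firefly luciferase made from a UUG start codon reports start codon fidelity; reporter light over untreated wells divided by growth signal over untreated wells; some hits fall short of that in this replicate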
PABP FP inh: blocks human PABP binding to poly(A) RNA. inhibition, % at 35 µM. 290,000 tested, 1% active. P11940. fluorescence polarization. AID 2014;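 active = 50% or more with normal probe brightness, or confirmed in later tests; inconclusive = above 50% with abnormal brightness, or retests that disagree; inactive = below 50% or failed in later tests; about a fifth of its hits are not listed in these tables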;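 also: calls also rest on retests at 20 µM and on dose response follow-up; controls were probe without protein and protein plus probe with vehicle; some compounds called inactive have numbers as strong as hits; many hits fall short of the cut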
Target sequence (P11940 whole entry, looked up): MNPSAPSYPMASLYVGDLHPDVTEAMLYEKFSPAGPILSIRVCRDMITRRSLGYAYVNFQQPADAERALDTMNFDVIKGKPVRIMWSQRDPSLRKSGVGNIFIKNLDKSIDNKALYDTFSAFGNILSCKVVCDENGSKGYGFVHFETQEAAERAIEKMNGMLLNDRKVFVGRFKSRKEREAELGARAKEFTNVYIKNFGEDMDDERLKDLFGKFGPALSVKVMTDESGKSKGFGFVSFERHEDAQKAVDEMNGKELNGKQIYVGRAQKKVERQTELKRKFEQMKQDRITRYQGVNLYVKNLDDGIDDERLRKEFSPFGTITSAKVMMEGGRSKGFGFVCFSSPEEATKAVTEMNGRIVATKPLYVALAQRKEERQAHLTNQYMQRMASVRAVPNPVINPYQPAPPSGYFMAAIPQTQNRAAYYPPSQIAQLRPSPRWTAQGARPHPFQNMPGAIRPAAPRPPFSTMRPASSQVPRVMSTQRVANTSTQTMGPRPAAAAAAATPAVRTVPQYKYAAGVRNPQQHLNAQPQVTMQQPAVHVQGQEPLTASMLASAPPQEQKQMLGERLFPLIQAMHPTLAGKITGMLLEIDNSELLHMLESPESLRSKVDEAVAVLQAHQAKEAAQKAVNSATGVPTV
MT1-MMP act inh RFP: second read-out of MT1-MMP act inh, no call of its own (marks repeat the call); RFP signal change, %; measured here: RFP expression control read;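 0 = vehicle wells; hits needed this value within 50% of zero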
The depositor's hits bear a star; i = inactive; ? = inconclusive; · = no result given.

SMILES	CSC inhib	Rce1 inh	eIF4H FP inh	Env fusion inh	MT1-MMP act inh	MT1-MMP act inh RFP	UUG fidelity	PABP FP inh
O=C(CNS(=O)(=O)c1ccccc1F)Nc1ccc(N2CCOCC2)cc1	-12	i	-13	-9	0	2	-7	3
CCCNS(=O)(=O)c1ccc(CCC(=O)Nc2ccc3c(c2)OCO3)cc1	-8	i	-7	15	5	9	-17	4
NC12CC3CC(C1)CC(CO)(C3)O2	3	i	0	·	-2	1	·	5
Cc1ccc(-c2nn(-c3ccccc3)cc2C=C2C(=O)CC(C)(C)CC2=O)cc1	0	i	4	·	-2	-9	·	-10
C#CCN(CC=C)C(=O)c1ccc(OC2CCN(S(=O)(=O)N(C)C)CC2)cc1	-18	i	-3	-1	3	-11	-14	6
CN(C)C(=O)CCc1ccc2c3c([nH]c2c1)[C@]1(CCC2CCCC2)[C@@H](C(=O)N2CCOCC2)C[C@H](CC(=O)NCc2ccco2)C(=O)N1CC3	·	·	·	-159	2	2	9	·
Cc1nnc(NC(=O)C2CCCCC2)s1	0	i	-4	65*	6	-1	-13	0
O=C(O)c1ccc(N/N=C/c2cc3ccccc3nc2Cl)cc1	1	i	0	-34	-22	-5	·	3
Cc1ccc(NC(=O)COC(=O)c2ccnn2C)cc1	-4	i	-12	·	-1	5	·	-4
O=C(NCCc1ccccc1)C1CCN(C(=O)N2CCOc3ccccc32)CC1	-5	i	-4	-10	6	5	-8	-2
COc1ccc(N(CC(=O)NCc2ccccc2)C(=O)Cn2nnc(-c3ccccc3F)n2)cc1OC	31	i	0	-10	-2	1	·	8
COc1ccc(CCCc2n[nH]c(=S)o2)cc1C	-6	i	-2	1	4	4	-40	-2
CCn1c(SCC(=O)Nc2nc3ccc(OC)cc3s2)nc2c1c(=O)n(C)c(=O)n2C	7	i	-7	3	-4	-10	·	-7
O=C(c1ccc(Cl)c(S(=O)(=O)NCc2cccnc2)c1)N1CCCC1	·	·	·	8	3	2	-13	·
CCSc1nc(C)c(CC)c(C)c1C(N)=O	-7	i	-14	·	-2	0	-3	-6
COc1ccc(NC(=S)c2ccccc2)cc1	-5	i	4	-11	0	1	-9	8
O=C(NCCc1ccc(Cl)cc1)C1CCCN1C(=O)Nc1ccccc1 (configuration not stated)	-10	i	11	8	-2	-6	-19	7
Cc1ccccc1C(=O)NCC(=O)OC1CCCCC1=O (configuration not stated)	-12	i	·	-7	1	8	-13	·
Oc1c(Cl)cc(Cl)c2c1NCCC2	·	i	30	39	9	9	-15	-1
O=C(NC(NC(=S)Nc1ccccc1C(=O)O)C(Cl)(Cl)Cl)c1ccccc1 (configuration not stated)	1	i	1	·	0	1	-6	-11
CCCCNC(=O)NNc1nc(Cl)cc(C)c1C#N	-1	i	-3	0	-3	-7	-6	-11
COc1cc(NC(=O)Cn2nc(Cc3cccnc3)c3ccccc3c2=O)cc(OC)c1OC	-6	i	0	·	4	2	-20	-3
COc1ccccc1N(CC(=O)NCc1ccco1)C(=O)CCC(=O)Nc1ccccn1	3	i	-10	1	-1	-3	-23	-9
CN1CCN(C(=S)C(=O)NCc2ccccc2)CC1	-13	i	3	-4	5	8	·	1
CC1(C)Cn2c(nnc2-c2ccccc2)S1	8	i	2	·	2	-3	-13	-3

Going on with the list.
SMILES	CSC inhib	Rce1 inh	eIF4H FP inh	Env fusion inh	MT1-MMP act inh	MT1-MMP act inh RFP	UUG fidelity	PABP FP inh
COc1cccc(NC(=O)C(C)OC(=O)c2n[nH]c3ccccc23)c1 (configuration not stated)	·	·	·	-8	7	-1	12	·
Cc1cccc(C)c1OC(=O)c1ccccc1	·	·	·	11	-5	3	-6	·
CC(=O)OCC(=O)C1(O)CCC2C3CC(C)C4=CC(=O)C=CC4(C)C3C(O)CC21C (configuration not stated)	·	·	·	i	3	4	-1	·
Cc1c(S(=O)(=O)N2CCCC(C)C2)c(=O)n(C)c(=O)n1C (configuration not stated)	-12	i	·	0	2	3	·	·
Cc1ccccc1-c1cc(C(=O)NCc2cccs2)n(CC2CC(c3cccnc3)=NO2)n1 (configuration not stated)	10	·	·	31	·	·	-15	·
COc1ccc(/C(C)=N/NC(=O)CNC(=O)/C=C\c2ccccc2OC)c(OC)c1	-21	i	-4	1	-3	4	-5	2
CCOC(=O)C1CCN(S(=O)(=O)c2ccc(Br)c(OCC)c2)CC1	-3	i	3	·	4	-3	-9	2
O=C(NCc1cc(C(F)(F)F)ccc1Cl)c1cccc2c1C(=O)c1ccc(N3CCOCC3)cc1S2(=O)=O	·	·	·	-8	-20	0	-14	·
COc1ccc(/C=N/NC(=O)CNC(=O)c2ccncc2)cc1	-4	i	12	-13	0	1	·	-2
O=C(N/C(=C\c1ccc([N+](=O)[O-])cc1)C(=O)N1CCOCC1)c1cccc(Br)c1	-25	i	8	5	-1	-3	6	-8
O=C(CSCC(=O)N1CCOCC1)Nc1ccccc1	-16	i	-9	·	1	5	-3	-2
NC(=S)NN=C1c2ccccc2-c2cc(Br)ccc21	·	·	·	3	2	-14	-18	·
Cc1ccccc1S(=O)(=O)NC(=O)C1(C)CCN1C(=O)c1ccccc1CCc1ccccc1 (configuration not stated)	·	·	·	-15	-3	3	4	·
[O-][n+]1cccc2c(Br)cc(Br)c(O)c21	8	·	20	-38	8	5	-59	44
Cc1ccc(C(=O)C2C(c3cccs3)NC(=O)NC2(O)C(F)(F)F)cc1 (configuration not stated)	-6	i	-6	·	5	3	-8	12
CC(C)Oc1ccc(C(=O)NCC(=O)O)cc1	-13	i	-8	-9	2	1	-14	0
COCC1OS(=O)(=O)NC(CC(=O)SC(C)(C)C)C1C (configuration not stated)	-8	i	-6	-7	2	5	-10	-1
Cc1nc2ccc(NC(=O)c3nn(C(C)C)c(=O)c4ccccc34)cc2s1	-6	i	-11	-47	-2	-2	2	-4
COc1cccc(C2NC(=O)NC(C)=C2C(=O)Nc2cccc(C)c2C)c1 (configuration not stated)	1	i	-5	-15	7	0	9	-2
COc1ccccc1-c1nnc2sc(COc3ccc(F)cc3)nn12	1	i	2	?	1	5	-19	7
Cc1ccc(N(CC(=O)Nc2ccc(-c3nc4ccc(C)cc4s3)cc2)S(C)(=O)=O)cc1	8	i	-11	·	-2	-3	3	0
COCCNC(=O)C(c1cccc(OC)c1)N(C(=O)Cn1nnc2ccccc21)c1cccnc1 (configuration not stated)	0	i	4	-22	2	8	-19	-6
CCn1c(C(C)NC(=O)Cc2ccccc2)nc2ccccc21 (configuration not stated)	-10	i	7	?	-3	0	-13	3
CCS(=O)(=O)c1ccc2oc(Nc3ccccc3Br)nc2c1	11	i	4	-72	-3	0	-29	2
Cn1ncc(Cl)c(Oc2ccc(Cl)cc2)c1=O	-8	i	-5	-2	3	5	·	-10

More results follow:
SMILES	CSC inhib	Rce1 inh	eIF4H FP inh	Env fusion inh	MT1-MMP act inh	MT1-MMP act inh RFP	UUG fidelity	PABP FP inh
CC(C)CNC(=O)c1c(F)c(F)c(F)c(F)c1F	9	·	1	15	0	1	-10	3
CCCCSc1nnc(CCCCCNC(=O)OC(C)(C)C)o1	-6	i	-6	55*	5	-7	15	2
C=CCn1cc(C(=O)NCc2ccc3c(c2)OCO3)c(=O)c2cc(S(=O)(=O)N(CC)CC)ccc21	·	i	0	·	-4	-8	-12	0
COc1ccc([N+](=O)[O-])cc1NC(=O)C(C)OC(=O)Cn1[nH]c(=O)c2ccccc2c1=O (configuration not stated)	-3	i	·	-38	-2	7	-13	·
COCC(C)n1c(C)cc(C(=O)Cn2nc(C(=O)O)c3ccccc3c2=O)c1C (configuration not stated)	0	i	-3	-21	1	0	-2	0
O=C(CCn1ccc2cc(S(=O)(=O)N3CCCC3)ccc21)NCCc1ccccc1	-17	i	8	17	-1	-5	-16	-1
CCOP(=O)(OCC)/C(C#N)=C/c1c[nH]c2ccccc12	-11	i	3	0	2	-1	-17	2
CCOc1ccc(OCC(=O)OCC(=O)N2CCN(C(=O)c3ccco3)CC2)cc1	5	i	·	3	3	2	-18	·
O=C(Nc1ccc(OC(=O)c2cccs2)cc1)c1ccco1	-4	i	-5	-17	4	7	-25	6
O=C(CSc1nc2ccccc2c(=O)n1CC1CCCO1)NCc1ccccc1 (configuration not stated)	·	i	2	7	-2	0	-10	1
O=C(Cn1nnc2ccccc2c1=O)NC1CCCCC1	·	i	-8	-15	1	2	-13	2
Cc1cc(C)n(-c2nc3ccccc3nc2N2CCN(S(=O)(=O)c3ccc(F)c(C)c3)CC2)n1	7	i	-5	·	1	-5	-15	8
C#CCN(CC=C)C(=O)c1cccc(OC2CCN(S(C)(=O)=O)CC2)c1	0	i	-4	13	2	-2	-16	-9
CC1CC(C)CN(C(=O)COC(=O)c2ccc3c(c2)OCO3)C1 (configuration not stated)	-10	·	·	-16	3	3	-2	·
CCN(CC)CCNC(=O)CNC(=O)c1nn(-c2ccc(OC)cc2OC)c(=O)c2ccccc12	-5	i	-1	13	0	0	·	4
N#CC(C#N)=C1C=C2C=C(N3CCCCCC3)CCC2CC1 (configuration not stated)	·	·	?	12	-49	38	·	1
C=CCc1c(C)nc(SC)nc1Nc1ccccc1	5	i	-6	-25	-3	-3	-12	11
Cc1cc(C(=S)N2CCOCC2)c(C)n1-c1ccc(Cl)cc1	8	i	22	·	-2	-5	-23	1
O=C(NC1CC1)c1ccc(NC(=O)C2CCCCC2)cc1	·	·	·	-29	4	6	-19	·
O=C(NCc1ccc(Cl)cc1)c1ccc2nc[nH]c2c1	·	·	4	19	2	3	·	3
O=C1Nc2ccc(S(=O)(=O)N3CCCCCC3)c3cccc1c23	-3	i	8	24	2	-3	-19	2
COc1ccccc1NC(=O)/C(=C/c1cccc([N+](=O)[O-])c1)c1ccccc1	21	i	0	24	0	-1	-7	-9
CCN1CCN(CCOc2cccc(Cl)c2Cl)CC1	8	i	10	4	4	5	·	5
Cc1ccccc1N1C(=O)CC(N2CCC(C(N)=O)CC2)C1=O (configuration not stated)	-3	i	-15	·	-3	2	0	-16
COc1ccc(CNc2nc3c(c(=O)n(Cc4ccc(Br)cc4)c(=O)n3C)n2C)cc1	-1	i	-8	23	3	-4	0	-17

More results follow:
SMILES	CSC inhib	Rce1 inh	eIF4H FP inh	Env fusion inh	MT1-MMP act inh	MT1-MMP act inh RFP	UUG fidelity	PABP FP inh
COC(=O)c1c(NC(=O)C2CC=CCC2C(=O)O)sc2c1CCCCC2 (configuration not stated)	3	i	7	5	-5	-1	23	10
CCOc1ccc(NS(=O)(=O)c2cc3c4c(c2)C(C)C(=O)N4CCC3)cc1 (configuration not stated)	-4	i	·	3	3	3	-8	·
Cc1ccc(OCCC(=O)OCC(=O)N2c3ccccc3NC(=O)C2(C)C)cc1	-11	i	·	-4	2	0	·	·
NC(Cc1ccc(C(F)(F)F)cc1)c1csc(NC(=O)Nc2ccccc2Cc2ccccc2)n1 (configuration not stated)	·	·	·	82*	3	-5	-1	·
COc1ccc(CCNC(=O)c2csc3c2CCCC3)cc1OC	5	i	-4	-5	3	-4	-7	-3
CCCCCCCN1CCC(=O)N([C@H](CO)Cc2ccccc2)CC1	17	i	1	17	2	5	-4	10
COc1ccc(-c2nc3c4ccccc4ccn3c2Cc2ccc(C)cc2)cc1OC	·	·	·	1	-2	-4	-10	·
O=C(O)c1cccc(NCc2cccnc2)c1	·	i	-11	·	3	3	-3	2
Cc1nn(C)cc1C=NCCOCc1ccccc1	·	i	1	-46	4	5	·	-2

A different layout for some results above:
compound | CSC inhib | Rce1 inh | eIF4H FP inh | Env fusion inh | MT1-MMP act inh | MT1-MMP act inh RFP | UUG fidelity | PABP FP inh
CCOc1ccc(NS(=O)(=O)c2cc3c4c(c2)C(C)C(=O)N4CCC3)cc1 (configuration not stated) | -4 | i | · | 3 | 3 | 3 | -8 | ·
Cc1ccc(OCCC(=O)OCC(=O)N2c3ccccc3NC(=O)C2(C)C)cc1 | -11 | i | · | -4 | 2 | 0 | · | ·

A portion of the library (hit frequency here may not be typical).
